Source: PubChem (several laboratories)
ugtP null kill: kills S. aureus RN4220 lacking UgtP | AID 1259309 | hit rate 0.54% among 330,000 | S. aureus RN4220 ugtP deletion, OD600 growth, 16 h; some inactives read as strong as hits | growth inhibition, % (test concentration not listed);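 active = z-score under -3 and OD600 up to 0.15 on both plates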;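 note: plate controls were untreated wells for no effect and antibiotic for full effect; wells of about 80 µL received 100 nL stock; the first replicate is given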
BJeLR viability: BJeLR cell viability loss | BJeLR (HRASV12) viability, CellTiter-Glo ATP luminescence, 48 h; reference of the scale not given here | hit rate 0.17% among 300,000 | inhibition, % (test concentration not listed);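 active = replicate mean above 50%; inconclusive = above 50% but judged a plate artefact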;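 note: 50 nL library stock added to about 25 µL; numbers are from one replicate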
RN4220 kill: S. aureus RN4220 growth inhibition. hit rate 0.33% among 330,000. inhibition, % (no concentration beside the values). OD600, 16 h;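 active = z-score of -3 or lower and OD600 up to 0.18 on both plates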;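 note: plate controls were untreated cells for no effect and reference antibiotic for full effect; stock transfer was 100 nL into about 80 µL; one replicate is shown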
Mtb hypoxia rep: Mtb hypoxia fluorescent reporter inhibition. fluorescence inhibition, % (test concentration not listed). hit rate 0.1% among 300,000. M. tuberculosis hypoxia-regulated fluorescent reporter, fluorescence;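 active = 35 to 45% if threefold the growth effect, above 45% if 1.5-fold the growth effect; inactive = the rest, general growth blockers included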;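 note: wells of about 50 µL received 100 nL stock; 0% = vehicle wells and 100% = reference inhibitor wells; whole bacteria with a GFP reporter of the hypoxia response; strong numbers were not always called active; many hits fall short of the cut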
PrP UTR inh: inhibition of PrP 5' UTR reporter expression. cell-based PrP 5' UTR mRNA reporter, plate reader. inhibition, % (test concentration not listed). hit rate 0.35% among 340,000;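 active = every replicate at 50% or more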;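 note: 0 = median of the neutral control wells; tested in H4 reporter cells; numbers are from one replicate; inactives centre near -14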
Autofluor counter: counter-screen for toxin protease inhibitors: compound fluorescence; compound autofluorescence counterscreen, microsphere flow cytometry; hits give high values; hit rate 3.1% among 360,000; fluorescence intensity (concentration not given with the values); AID 624483;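 active = at least 3 SD above the mean of all compounds, about 16000 in these data; inconclusive = too few beads counted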;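 note: 100 nL of 1 mM stock went into each well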
Mtb hypoxia rep growth: further read-out of Mtb hypoxia rep, marked with its call; growth inhibition, %; measured here: M. tuberculosis growth (absorbance);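 0% = vehicle and 100% = reference antibiotic; read after six days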
The depositor's hits bear a star; ? = inconclusive; · = not tested or not shown.

SMILES	ugtP null kill	BJeLR viability	RN4220 kill	Mtb hypoxia rep	Mtb hypoxia rep growth	PrP UTR inh	Autofluor counter
O=C(NN=Cc1ccoc1)c1cc(Br)ccc1O	4	·	12	12	7	·	·
COc1cccc(-c2nc(N3CC(C)CC(C)C3)c3ccccc3n2)c1O (stereo not drawn)	-10	0	3.9	9	9	-13	3010
C=CCN1C(=O)C(CC(=O)Nc2ccccc2)N(Cc2ccccn2)C1=S (stereo not drawn)	3	5	6.0	-4	8	-18	3232
NC(=O)Cc1ccc(C(=O)c2ccccc2)s1	3	-1	4.6	5	-1	-22	3658
Cc1cc(Cl)ccc1NC(=O)C1COc2ccccc2O1 (stereo not drawn)	6	-3	3.6	10	8	-35	4567
O=C(CSCc1nc2c(nnn2Cc2ccc(F)cc2)c(=O)[nH]1)Nc1cccc(C(F)(F)F)c1	-78	12	8.0	12	-7	-7	5075
CC(=O)Nc1ccc(SCC(=O)OCC(=O)NC(=O)NCc2ccco2)cc1	-4	0	-1.4	6	-5	-32	9090
CC1(C)Oc2ccc3ccc(=O)oc3c2C[C@H]1O	·	13	·	·	·	-19	3499
CC(=O)c1cc(-c2ccc(F)cc2)n(CC(=O)NCc2cccs2)c1C	0	-1	1.3	·	·	-7	4631
CC(=O)Nc1ccc(S(=O)(=O)Nc2nc3ccccc3s2)cc1	6	2	4.9	1	2	-8	3187
Cc1cccc(CN2CCN(C(=O)CN(C)C(C)C(=O)Nc3ccc(C(N)=O)cc3)CC2)c1 (stereo not drawn)	2	·	0.1	2	-1	-9	7680
CCCCCN(C(=O)CCC(=O)OCc1cccc(C)c1)c1c(N)n(CCCC)c(=O)[nH]c1=O	9	-7	-1.7	0	-5	-16	6023
CCCCC(CC)CNC(=O)C(=O)c1ccccc1NC(C)=O (stereo not drawn)	7	-15	-2.0	14	11	-12	8028
O=C(Oc1ccc(N(Cc2cccs2)C2=NS(=O)(=O)c3ccccc32)cc1)c1ccccc1Cl	-5	-2	3.4	16	9	-3	·
Cc1cc(NCCC(C)C)n2nc(C)c(-c3ccccc3)c2n1	-31	1	-0.5	3	13	-4	24144*
CC(=O)/C(N=Nc1cccc(C(F)(F)F)c1)=C(\C)O	2	6	5.6	8	3	-11	4434
O=C(CSc1nc2nc3c(cc2c(=O)n1-c1ccccc1)CCCC3)Nc1ccccc1	8	-4	0.1	-1	2	-26	2130
COc1ccc(CNC(=O)CCN2C(=O)c3ccncc3C2=O)cc1OC	4	12	9.5	5	0	-17	6046
CCCNC(=O)c1ccccc1NC(=O)COc1ccc(OC)cc1	13	-2	4.9	2	-1	-7	19742*
COc1ccc(/C=N/NC(=O)C(C)n2cnc3ccccc3c2=O)cc1 (stereo not drawn)	·	-23	·	·	·	-17	10105
CCOC(=O)c1nn(-c2ccccc2)c2nc(Nc3ccccc3)cc(=O)n12	1	-3	7.4	14	6	-7	3051
O=[n+]1cc(-c2ccccc2)n([O-])c2c1CCC2	-3	5	0.7	·	·	-37	3429
Cc1ccnc(NC(=O)c2ccc(S(=O)(=O)N3CCCCCC3)cc2)c1	3	6	1.2	3	8	-52	?
Cc1[nH]c2c(Cl)cccc2c1CCN	9	-5	1.8	·	·	·	·
CCc1ccc(CN2C(=O)c3ccccc3C2C(=O)NCc2cccnc2)cc1 (stereo not drawn)	1	-9	2.9	-1	4	-8	4924

Part of the list above, in markdown.
| compound | ugtP null kill | BJeLR viability | RN4220 kill | Mtb hypoxia rep | Mtb hypoxia rep growth | PrP UTR inh | Autofluor counter |
| --- | --- | --- | --- | --- | --- | --- | --- |
| O=C(CSCc1nc2c(nnn2Cc2ccc(F)cc2)c(=O)[nH]1)Nc1cccc(C(F)(F)F)c1 | -78 | 12 | 8.0 | 12 | -7 | -7 | 5075 |
| CC(=O)Nc1ccc(SCC(=O)OCC(=O)NC(=O)NCc2ccco2)cc1 | -4 | 0 | -1.4 | 6 | -5 | -32 | 9090 |
| CC1(C)Oc2ccc3ccc(=O)oc3c2C[C@H]1O | · | 13 | · | · | · | -19 | 3499 |

The list goes on:
SMILES	ugtP null kill	BJeLR viability	RN4220 kill	Mtb hypoxia rep	Mtb hypoxia rep growth	PrP UTR inh	Autofluor counter
CC(=O)Nc1nonc1NC(C)=O	6	-4	4.8	7	3	-36	9763
CCc1ccccc1NC(=S)N(CCN(C)C)C(C)c1cccnc1 (stereo not drawn)	6	0	4.4	11	2	-2	?
Cc1ccccc1C(OCCN(C)C)C1CCCCC1 (stereo not drawn)	-2	14	3.6	5	1	2	2369
Cc1ccc(Nc2nc(C(=O)NCC3CCCO3)cs2)cc1 (stereo not drawn)	-2	5	4.8	9	-1	-28	4521
Cc1ccc(CSCCNC(=O)c2ccc(C)cc2)cc1	3	0	1.4	7	-7	-6	3496
Cc1ccc(OCC(=O)NN=C2C3CC4CC(C3)CC2C4)cc1	2	·	4.8	1	6	0	9371
CCCCCCCSc1cc(OC)c(CCN(C)C)cc1OC	-21	11	0.0	·	·	0	2028
COCCNS(=O)(=O)c1cc(Br)ccc1OC	-1	-3	0.3	6	5	-20	24939*
O=C(Cc1coc2ccc3ccccc3c12)Nc1nccs1	2	-4	0.1	·	·	-7	3552
CCNC(=O)CC1C(=O)N(c2ccc(F)cc2)C(=S)N1CCc1ccncc1 (stereo not drawn)	0	-3	-4.8	6	-4	-9	3425
CC1CCN(C(c2ccc(N(C)C)cc2)c2nnnn2C(C)(C)C)CC1 (stereo not drawn)	6	-5	0.5	·	·	-13	2789
O=C(COC(=O)C1CC(=O)N(Cc2ccccc2)C1)Nc1ccccc1F (stereo not drawn)	1	2	-2.9	0	1	-18	3969
Cc1c(Cl)cnc(NC(=O)COC(=O)c2ccc(S(=O)(=O)NCc3ccco3)cc2)c1Cl	-7	9	6.9	0	1	-20	2282
Cn1nnnc1SCC(=O)NCc1cc([N+](=O)[O-])ccc1O	6	0	3.4	7	9	-17	2126
CCCOc1ccc(N2CC(C(=O)NC(C)C)CC2=O)cc1 (stereo not drawn)	-8	3	-2.6	1	5	-6	3788
Cc1ccc2nc(-c3ccc(NC(=O)c4ccco4)cc3)[nH]c2c1	-1	4	0.4	7	5	-107	8399
O=C1Nc2cccnc2N(C(=O)CCl)c2ccccc21	3	-10	4.0	·	·	-19	3857
COC(C(=O)Nc1cccc(F)c1)c1ccccc1 (stereo not drawn)	2	1	4.7	10	8	-22	5267
O=C(O)c1ccccc1C1=Nc2ccc(O)cc2Oc2cc(O)ccc21	9	-1	-0.4	·	·	-8	2376
CCOc1ccc(-n2cc(C(=O)Nc3cccc(OC)c3)c3cc(OC)c(OC)cc3c2=O)cc1	1	-7	4.0	12	16	-35	9244
CCCCCCCCCC(=O)NNC(=O)c1c(O)c2ccccc2n(CC)c1=O	101*	-1	97*	4	4	-20	2269
O=C(Nc1ccccc1N1CCOCC1)c1cc(Br)c(Br)s1	6	-13	14	-4	2	-18	4628
COc1ccc(C(=O)NCc2ccc3c(c2)cc(C)n3C)cc1OC	-3	-2	-2.6	0	4	30	1632
CCCn1cc(CN2CCCC(C(=O)c3cccc(OC(C)C)c3)C2)c(C)n1 (stereo not drawn)	7	2	-1.2	4	7	-34	2694
CCOc1cccc(-c2c(C(=O)NN=Cc3sccc3C)nnn2-c2nonc2N)c1	-4	·	7.1	5	0	·	·
More records follow:
SMILES	ugtP null kill	BJeLR viability	RN4220 kill	Mtb hypoxia rep	Mtb hypoxia rep growth	PrP UTR inh	Autofluor counter
Cc1ccccc1COc1ccc2oc(C)c(C(=O)O)c2c1	-1	16	16	14	-1	-23	5268
COc1ccc(C(=O)Nc2ccc(S(=O)(=O)Nc3onc(C)c3C)cc2)c(OC)c1	7	3	4.7	9	11	-10	2111
O=C1c2ccccc2C(=O)N1CCc1csc(-c2cccc(F)c2)n1	-3	-1	10	2	-1	-13	16011
COCCNC(=O)C(c1cccc(OC)c1)N(Cc1cccs1)C(=O)Cn1nnc2ccccc21 (stereo not drawn)	4	-11	2.0	·	·	-4	3572
CCn1cc2nc(SCC(=O)Nc3ccccc3F)n(Cc3ccccc3)c(=O)c2n1	-6	12	2.2	-11	0	-15	5252
CC/C(=N\O)C(C)(C)/[N+]([O-])=C/c1ccc(Br)cc1	·	2	·	·	·	-9	15875
CCOC(=O)Cn1nc(C)c([N+](=O)[O-])c1C	-3	5	4.2	10	6	-24	3453
OCC[C@@H]1C[C@H](O)[C@@H](O)[C@]2(Cc3ccccc3CO2)O1	·	-3	·	·	·	-10	4179
CNC(=O)COc1cccc(C(=O)NCc2ccccc2)c1	3	-5	4.1	7	-1	-24	1990
COCCCNc1nc2nonc2nc1N1CCN(C2CCCC2)CC1	3	10	12	0	8	-2	4238
O=C(NCc1cccc(Br)c1)c1cc(-c2ccccc2)nn1CC1CC(c2cccnc2)=NO1 (stereo not drawn)	·	0	·	·	·	-14	4009
COc1cc2c(c(OC)c1OC)-c1ccc(NC(=O)c3ccc(F)cc3)c(=O)cc1[C@@H](NC(C)=O)CC2	·	3	·	·	·	-17	3131
COCc1c(C(=O)Nc2ccc3nc(N4CCOCC4)sc3c2)oc2ccccc12	-8	·	-1.5	2	-3	-26	8673
CCn1c(=O)n(CC)c2cc(S(=O)(=O)N3CCOCC3)ccc21	4	4	6.7	6	14	-6	5802
CCCCCCCCCCCn1nnnc1N	-2	·	3.4	8	-1	-17	3737
COc1ccccc1NC(=O)CSc1nnnn1C1CCCCC1	4	-3	2.4	3	4	2	5593
COc1cc2c(cc1OC)CN(C(=O)c1cccc(S(=O)(=O)N(C)C)c1)CC2	-1	12	1.7	10	2	-8	3418
CCOc1ccccc1C(=O)NC1CCN(Cc2ccccc2)CC1	13	0	2.7	13	7	-38	4631

14 consecutive records from above, for reference:
SMILES	ugtP null kill	BJeLR viability	RN4220 kill	Mtb hypoxia rep	Mtb hypoxia rep growth	PrP UTR inh	Autofluor counter
COCCNC(=O)C(c1cccc(OC)c1)N(Cc1cccs1)C(=O)Cn1nnc2ccccc21 (stereo not drawn)	4	-11	2.0	·	·	-4	3572
CCn1cc2nc(SCC(=O)Nc3ccccc3F)n(Cc3ccccc3)c(=O)c2n1	-6	12	2.2	-11	0	-15	5252
CC/C(=N\O)C(C)(C)/[N+]([O-])=C/c1ccc(Br)cc1	·	2	·	·	·	-9	15875
CCOC(=O)Cn1nc(C)c([N+](=O)[O-])c1C	-3	5	4.2	10	6	-24	3453
OCC[C@@H]1C[C@H](O)[C@@H](O)[C@]2(Cc3ccccc3CO2)O1	·	-3	·	·	·	-10	4179
CNC(=O)COc1cccc(C(=O)NCc2ccccc2)c1	3	-5	4.1	7	-1	-24	1990
COCCCNc1nc2nonc2nc1N1CCN(C2CCCC2)CC1	3	10	12	0	8	-2	4238
O=C(NCc1cccc(Br)c1)c1cc(-c2ccccc2)nn1CC1CC(c2cccnc2)=NO1 (stereo not drawn)	·	0	·	·	·	-14	4009
COc1cc2c(c(OC)c1OC)-c1ccc(NC(=O)c3ccc(F)cc3)c(=O)cc1[C@@H](NC(C)=O)CC2	·	3	·	·	·	-17	3131
COCc1c(C(=O)Nc2ccc3nc(N4CCOCC4)sc3c2)oc2ccccc12	-8	·	-1.5	2	-3	-26	8673
CCn1c(=O)n(CC)c2cc(S(=O)(=O)N3CCOCC3)ccc21	4	4	6.7	6	14	-6	5802
CCCCCCCCCCCn1nnnc1N	-2	·	3.4	8	-1	-17	3737
COc1ccccc1NC(=O)CSc1nnnn1C1CCCCC1	4	-3	2.4	3	4	2	5593
COc1cc2c(cc1OC)CN(C(=O)c1cccc(S(=O)(=O)N(C)C)c1)CC2	-1	12	1.7	10	2	-8	3418

No enrichment for hits. About 3.9% of those tested had a hit in this group.
